# Cruzain noTriton: blocks cruzain activity in detergent-free assay. purified cruzain, Z-FR-AMC fluorescence, no detergent. Potency, µM, inactives show max response, negative = inhibition, most hits filed as inhibitors. 200,000 compounds, 2.3% hits. AID 1476; active = well fitted curve in the direction sought with a large enough effect; inconclusive = small, poorly fitted or top-dose-only effect, or another doubt; inactive = no such curve, though single readings can be large; an effect the other way counts as inactive or inconclusive;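 note: plate controls were enzyme without inhibitor for no effect and buffer without enzyme for full effect; nearly all actives have a fitted effect of over 40% in size; top concentration of the series not given in the record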
# Target sequence (P25779 123-467 limits assumed): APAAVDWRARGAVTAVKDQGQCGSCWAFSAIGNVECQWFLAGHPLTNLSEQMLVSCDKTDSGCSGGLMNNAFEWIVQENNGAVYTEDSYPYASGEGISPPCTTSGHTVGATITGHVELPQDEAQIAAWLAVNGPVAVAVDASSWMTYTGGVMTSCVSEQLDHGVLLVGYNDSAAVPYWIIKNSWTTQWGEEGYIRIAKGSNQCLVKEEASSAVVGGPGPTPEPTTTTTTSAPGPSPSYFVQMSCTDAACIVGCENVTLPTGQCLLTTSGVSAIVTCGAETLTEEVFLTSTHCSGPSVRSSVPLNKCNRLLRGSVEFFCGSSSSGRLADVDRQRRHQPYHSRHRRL
#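 Detergent-free condition (0.00005% Triton X-100) in acetate buffer pH 5.5 with DTT. 1.5 nM enzyme and compound were pre-mixed 15 min, then 2 uM Z-FR-AMC substrate added; reaction progress from fluorescence change between first and third reads (60 s).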
# RE007 growth inh: less growth of the S. pombe RE007 Vpr strain; S. pombe RE007 Vpr strain, BacTiter-Glo ATP luminescence, 24 h; control for the full effect not named in the record; 360,000 compounds, 0.21% hits; Potency, µM (doses to about 92.2 µM), inactives show top-dose activity change, negative = less growth; AID 651644; active = well fitted falling curve with a large enough effect; inconclusive = small, poorly fitted or top-dose-only effect; inactive = no such curve, though single readings can be large or run the other way;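 note: % is set by controls: 0 for no effect and ±100 for the full control effect; nearly all actives have a fitted effect of over 50% in size; the assay follows cell death caused by Vpr and the record does not say whether a fall means rescue or toxicity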
#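 Fission yeast RE007 carrying one integrated HIV-1 vpr copy, seeded at OD 0.01 in PMG+AL medium with 23 nL pinned compound. Grown 24 h at 30 degrees; viability read by BacTiter-Glo luminescence after 5 min.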
# SARS PLpro yeast: blocks SARS-CoV papain-like protease in a yeast assay. AID 485353. S. cerevisiae expressing SARS-CoV PLpro, growth rescue; control for the full effect not named in the record. Potency, µM (highest dose often 32.9 µM), inactives show top-dose activity, positive = growth rescue. 330,000 compounds, 0.19% hits; note: 0% is about no effect; nearly all actives have a fitted effect of over 55% in size; growth read by luminescence after 48 h
# NS1 inh: influenza NS1 inhibition | Potency, µM (highest dose often 46.1 µM), for inactives: at the top dose activity, positive = more growth | 270,000 compounds, 0.4% hits | S. cerevisiae slowed by influenza A NS1, growth recovery by OD600 | AID 2326; note: actives are rising curves; nearly all actives have a fitted effect of over 50% in size
#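 OD600 was taken as the measure of yeast growth restored by compound in an NS1-expressing S. cerevisiae strain. Cells had been washed out of glucose medium and diluted 1:100 into galactose -URA medium, pH 6.0.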
# Cruzain Triton: cruzain (T. cruzi) inhibition with detergent | purified cruzain, Z-FR-AMC fluorescence, 0.01% Triton | Potency, µM, inactives show max response, negative = inhibition, most hits filed as inhibitors | 200,000 compounds, 0.43% hits | AID 1478; active = well fitted curve in the direction sought with a large enough effect; inconclusive = small, poorly fitted or top-dose-only effect, or another doubt; inactive = no such curve, though single readings can be large; an effect the other way counts as inactive or inconclusive;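 note: plate controls were neutral wells for no effect and buffer without enzyme for full effect; nearly all actives have a fitted effect of over 40% in size; top concentration of the series not given in the record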
#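 Steps: dispense cruzain (1.5 nM final) in acetate buffer pH 5.5 with DTT and 0.01% Triton X-100; pin-transfer compounds; incubate 15 min RT; add Z-FR-AMC (2 uM final); read fluorescence every 30 s, using the 60 s intensity change.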
# Marburg entry inh: Marburg virus entry inhibition. 300,000 compounds, 1.8% hits. Marburg virus pseudotyped entry inhibition, cell reporter; control for the full effect not named in the record; about a third of the inactives were read at about 46 µM. Potency, µM (top dose mostly 37.8 µM), for inactives: top-dose activity change, negative = inhibition, hits mostly inhibitors; active = well fitted inhibition curve with a large enough effect; inconclusive = small, poorly fitted or top-dose-only effect, or effect the other way; inactive = flat fitted curve, though single readings scatter; tested in HEK293 cells; about a fifth of its hits are not listed in these tables; note: % is set by controls: 0 for no effect and ±100 for the full control effect; luciferase read-out
# Lassa entry inh: inhibitors of Lassa virus binding or cell entry. Potency, µM (highest dose often 37.9 µM), without a hit: top-dose activity change, negative = inhibition, usual class: inhibitors. 300,000 compounds, 1.2% hits. Lassa virus pseudotype entry inhibition, cell reporter; control for the full effect not named in the record; active means well fitted inhibition curve with a large enough effect; inconclusive means small, poorly fitted or top-dose-only effect, or effect the other way; inactive means flat fitted curve, though single readings scatter; tested in HEK293 cells; note: % is set by controls: 0 for no effect and ±100 for the full control effect; nearly all actives have a fitted effect of over 50% in size; luciferase read-out
# StopGo reporter: lowers the luciferase signal of an FMDV 2A StopGo reporter; AID 1159524; human cells with a luciferase reporter of 2A StopGo recoding; control for the full effect not named in the record; 410,000 compounds, 1.2% hits; Potency, µM (highest dose often 57.9 µM), inactives show at the top dose signal change, negative = less light; active = well fitted falling curve with a large enough effect; inconclusive = small, poorly fitted or top-dose-only effect; inactive = no such curve, though single readings can be large or run the other way; tested in HEK293T cells; note: % is set by controls: 0 for no effect and ±100 for the full control effect; nearly all actives have a fitted effect of over 45% in size; luciferase light after 4 h
# * marks the source's active call; other numbers are inactive results; ? = inconclusive; / = not tested or not shown; & = joins results of further samples; [ ] = dose if it differs, or a comment. Unless noted, calls come from the whole dose curve; as a rule, active means well fitted rising curve with a large enough effect; inconclusive means small, poorly fitted or top-dose-only effect; inactive means no such curve, though single readings can be large or run the other way. Potency is the fitted concentration of half-maximal effect.
Structure,RE007 growth inh,Lassa entry inh,Cruzain noTriton,Cruzain Triton,Marburg entry inh,StopGo reporter,NS1 inh,SARS PLpro yeast
COc1ccc(S(=O)(=O)N2CCOCC2)cc1NC(=O)Cc1cccs1,20%,8%,/,/,16%,-8%,/,0%
COc1ccc(C(C(=O)NC(C)(C)C)N(Cc2ccco2)C(=O)CCC(=O)Nc2ccccn2)cc1 (stereo not given),4%,2%[46.1 µM],/,/,?,25%,-25%,0%
COc1ccc(-n2c(=O)[nH]c3cc(C(=O)NCCc4ccc(Cl)cc4)ccc3c2=O)cc1OC,5%,?,9%,-12%,2%&2%[46.1 µM],?,/,-5%
FC(F)(F)c1cccc(NC2=NCCCS2)c1,-1%,/,/,/,/,-11%,6%,5%
Cc1cc(C)c(Nc2nc3ccccc3n3c(C)nnc23)c(C)c1,/,-4%[46.1 µM],-7%,-2.1%,/,-15%,/,/
CC(C(=O)Nc1ccccc1Cl)c1ccc([N+](=O)[O-])cc1 (stereo not given),-1%,-27%,/,/,-18%[46.1 µM],-11%,/,-1%
CCN1CCN(C(=O)C2CCN(S(=O)(=O)c3cccc4cccnc34)CC2)CC1,-16%,/,-7%,-2.3%,/,-25%,11%,-4%
CCOc1ccc(NC(=O)Cn2cnc3c(oc4ccccc43)c2=O)cc1,/,10%[46.1 µM],?,-9.0%,/,16%,/,/
Cc1ccc(C(=O)CSc2nnc(COc3cc(C)cc(C)c3)o2)cc1,10%,-29%,2%,-4.2%,-10%,-16%,-5%,-5%
Cc1[nH]c(C)c(S(=O)(=O)NCCc2ccc(S(N)(=O)=O)cc2)c1C(=O)N1CCCC1,12%,/,/,/,/,-5%,15%,0%
COc1cc(NC(=O)c2cc(-c3cccs3)on2)cc(OC)c1OC,-7%,?,12%,-4.8%,?,-24%,-66%,-13%
Cc1ccc(C2C3=C(CCCC3=O)OC3=C2C(=O)CCC3)cc1,14%,5%,3%,-0.3%,14%,3%,-5%,10%
O=C(O)CC(CC(=O)O)(C(=O)O)c1ccccc1,4%,9%,/,/,9%[46.1 µM],17%,5%,1%
O=C(CNCC1(N2CCOCC2)CCCCC1)Nc1ccc(Cl)cc1,5%,11%,/,/,2%[46.1 µM],-9%,2%,-2%
CCOc1cc(C=O)ccc1OCCSc1ccc(C)cc1,9%,?,-9%,-7.5%,24%,11%,-31%,-18%
Cc1ccc(S(=O)(=O)N(CC(=O)Nc2ccc(F)cc2F)Cc2ccc(F)cc2)cc1,/,-23%[46.1 µM],13%,-7.7%,9%[46.1 µM],-15%,/,/
Cc1nc2c(c(=O)n1CCC(C)C)c1nc3ccccc3nc1n2CC1CCCO1 (stereo not given),15%,?,/,/,?,0%,7%,-1%
COc1ccc(CCNC(=O)c2ccccc2NS(=O)(=O)c2cc(C(=O)O)ccc2OC)cc1,-8%,-1%[46.1 µM],/,/,?,5%,?,1%
CCOC(=O)c1c(NC(=O)c2cccs2)sc(C)c1CC,1%,-17%,-25%,-6.3%,?,-24%,-50%,-5%
O=c1oc2c3c(ccc2c2ccccc12)OCN(Cc1ccc(Cl)cc1)C3,/,2%[46.1 µM],7%,-1.2%,?,-8%,/,/
COc1cc(C(=O)OCC(=O)Nc2ccc(OC(F)F)cc2)cc(OC)c1OC,3%,?,/,/,?,0%,-11%,-4%
CCCCOc1ccccc1NC(=O)CC1Sc2ccccc2NC1=O (stereo not given),/,7%[46.1 µM],3%,-0.5%,0%[46.1 µM],-1%,/,/
COc1cc(CO)ccc1OCc1nnnn1-c1ccc(C)cc1,2%,0%,/,/,14%,-9%,/,2%
Cc1cc(C)c(C#N)c(Nc2ccccc2C)n1,-9%,1%[46.1 µM],/,/,1%[46.1 µM],-9%,-23%,-3%
CCc1nc(NCCc2ccccn2)c2nnn(Cc3ccccc3F)c2n1,2%,16%,6%,-0.7%,?,?,-43%,-5%
CCOc1ccc(C(=O)Nc2ccc3nc(N4CCN(CC)CC4)cc(C)c3c2)cc1,3%,28%[46.1 µM],/,/,?,?,5%,0%
COc1cc([N+](=O)[O-])ccc1NC(=O)CCCOc1ccc(C)cc1,-10%,?,-1%,-6.1%,-38%,-11%,-7%,1%
Cc1cc2c(=O)n(C)c(SCC(=O)Nc3cccc(O)c3)nc2s1,-13%,9%[46.1 µM],/,/,-3%[46.1 µM],16%,-2%,1%
CCc1ccc(-n2nc(C)c3c(C)cc(=O)n(CC(=O)Nc4ccc(F)cc4C)c32)cc1,/,13%[46.1 µM],4%,-0.6%,/,6%,/,/
Cc1ccc(NCc2ccccc2)cc1,-13%,11%,/,/,15%[46.1 µM],68%[activator],/,-4%

# Overlap with the part before: 2 compounds, then new ones.
Structure,RE007 growth inh,Lassa entry inh,Cruzain noTriton,Cruzain Triton,Marburg entry inh,StopGo reporter,NS1 inh,SARS PLpro yeast
CCc1ccc(-n2nc(C)c3c(C)cc(=O)n(CC(=O)Nc4ccc(F)cc4C)c32)cc1,/,13%[46.1 µM],4%,-0.6%,/,6%,/,/
Cc1ccc(NCc2ccccc2)cc1,-13%,11%,/,/,15%[46.1 µM],68%[activator],/,-4%
COc1cc(NC(=O)CSc2nc3[nH]ncc3c(=O)n2-c2ccc(Cl)cc2)cc(OC)c1,15%,/,/,/,/,-23%,6%,?
CCN(CC)c1ccc(NC(=O)c2cc3ccccc3o2)c(C)c1,-12%,-2%,-4%,-0.6%,0%,15%,-6%,-3%
Cc1nn2c(-c3ccccc3)cc(-c3ccccc3)nc2c1-c1ccc(Cl)cc1,/,-2%[46.1 µM],-11%,-0.4%,-13%[46.1 µM],-1%,/,/
CCc1ccc(-c2nc(SCC(=O)N3CCOCC3)n[nH]2)cc1,-5%,8%,/,/,-14%[46.1 µM],30%[activator],/,0%
CC/C(=N\NC(=O)c1c(C)nc2ccccn12)c1ccc(Cl)cc1,-23%,-4%[46.1 µM],/,/,5%[46.1 µM],-25%,7%,0%
COc1ccc(Cn2cc(C(=O)c3ccc(OC)cc3)c(=O)c3cc4c(cc32)OCCO4)cc1,/,?,7%,-4.5%,-17%[46.1 µM],-12%,/,/
C=CCCC(=O)Nc1ccc(Br)cn1,37%,?,/,/,/,12%,-5%,1%
COc1ccc(NS(=O)(=O)c2cc(NC(=O)Cc3n[nH]c(=O)c4ccccc34)ccc2OC)cc1,17%,-6%,/,/,24%,22%,/,/
Cc1occc1C(=O)N1CCCC(N2CCN(c3ccccc3F)CC2)C1 (stereo not given),-18%,0%,/,/,5%,-6%,4%,0%
Cc1ccc(NC(=O)C2CC(O)CN2C(=O)Oc2ccccc2)c(C)c1 (stereo not given),-4%,8%,/,/,5%[46.1 µM],8%,-3%,0%
Cc1ccc(CN2CCCn3nc(C(=O)NCCc4cccc(C)c4)cc3C2=O)cc1,/,-14%[46.1 µM],-7%,-0.6%,/,1%,/,/
Cc1ccc(-c2nc3ncccn3c2Nc2ccc3c(c2)OCCO3)cc1,-1%,10%[46.1 µM],2%&2%,-0.7%&-2.7%,20%[46.1 µM],38%&-2%[activator],-8%,0%
CN(C)C(CNC(=O)c1ccc(S(=O)(=O)NCc2ccco2)cc1)c1ccccc1 (stereo not given),6%,-4%,5%,-4.2%,-13%,19%,1%,3%
Cc1cc(C)cc(NS(=O)(=O)c2ccc3c(c2)OCC(C(=O)N2CCCC2)O3)c1 (stereo not given),/,-13%[46.1 µM],21%,-3.4%,/,7%,/,/
COc1cccc(N2C(=O)/C(=C/c3ccc(C)o3)C(=O)NC2=S)c1,2%,/,/,/,/,18µM*,5%,3%
Cc1cccc(N2CCN(C(=O)COCc3cc(-c4ccc5c(c4)OCO5)on3)CC2)c1C,-6%,2%&-2%[46.1 µM],/,/,22%&22%[46.1 µM],-9%&-16%,12%,-2%
Cn1c(SCCCC(=O)c2ccc(Br)cc2)nnc1-c1ccncc1,1%,?,-3%,-0.9%,?,-4%,-3%,3%
CCOC(=O)c1ccc(NC(=O)c2cc(C)nn2-c2ccccc2)cc1,11%,/,/,/,/,-13%,4%,-4%
O=C(COc1ncnc2ccccc12)NCCC1=CCCCC1,-3%,2%,5%,8.2%,6%,22%,-1%,1%
COc1ccc(C2=NO[C@@H]3C(=O)N(c4ccc5c(c4)OCCO5)C(=O)[C@H]23)cc1OC,4%,18%,2%,2.3%,-1%,?,?,-2%
CCn1c(=S)[nH]c2sc3c(c2c1=O)CCCC3,7%,/,/,/,/,-15%,0%,-2%
Cc1ccc(NCc2cc3cc4c(cc3n(CC(=O)Nc3ccc(F)cc3F)c2=O)OCCO4)cc1,/,17%[46.1 µM],?,-4.5%,/,32%[activator],/,/
O=C(NC1CCN(Cc2ccc(Cl)c(Cl)c2)CC1)c1ccccc1,-9%,11%[46.1 µM],/,/,?,-22%,-4%,0%
CC(NC(=O)/C(C#N)=C1\N=C(NC(=O)c2ccco2)c2ccccc21)c1ccccc1 (stereo not given),6%,?,/,/,?,-31%,0%,1%
CCCOc1ccc(N2CC(C(=O)Nc3ccc4c(c3)OCO4)CC2=O)cc1 (stereo not given),-2%,/,-7%,-1.3%,/,2%,-1%,4%

# Copied from the list:
# CC(NC(=O)/C(C#N)=C1\N=C(NC(=O)c2ccco2)c2ccccc21)c1ccccc1 (stereo not given) in RE007 growth inh → 6%
# Cc1occc1C(=O)N1CCCC(N2CCN(c3ccccc3F)CC2)C1 (stereo not given) in StopGo reporter → -6%
# COc1ccc(C2=NO[C@@H]3C(=O)N(c4ccc5c(c4)OCCO5)C(=O)[C@H]23)cc1OC in RE007 growth inh → 4%
# O=C(NC1CCN(Cc2ccc(Cl)c(Cl)c2)CC1)c1ccccc1 in RE007 growth inh → -9%

# Screening results from PubChem.
